Menin-MLL FL inh – qHTS Assay for Inhibitors Targeting the Menin-MLL Interaction in MLL Related Leukemias: Competition With Fluorescein Labeled MLL-derived Peptide. Fluorescence polarization, fluorescein-MLL peptide displacement from menin. 290,000 tested, under 10 active. FP activity change, % at 61.4 µM; inconclusive = falling polarisation curve, or a change in total fluorescence; inactive = total fluorescence flat and polarisation flat or rising; no compound was filed as active; the % refers to the polarisation; negative = inhibition;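 further: % of control where 0% means no effect; inhibitors lower the polarisation; unlabelled MLL peptide was the positive control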
PINK1 modulator – A Quantitative High throughput Screen to Identify Chemical Modulators of PINK1 Expression. Potency, µM (doses to about 76.6 µM), for the others: at the top dose activation (PINK1 increase), usual class: activators. AID 624263, 2012. 410,000 compounds, 0.2% hits. PINK1 immunofluorescence, high-content cytometry, 24 h; active = well fitted activation curve with a large enough effect; inconclusive = small, poorly fitted or top-dose-only effect; inactive = flat fitted curve, though single readings scatter; cell line not stated here;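 further: potency means the concentration at half of the fitted maximal effect; % of control where 0% means no effect; nearly all actives have a fitted effect of over 65% in size; a mitochondrial uncoupler was the plate control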
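Readout is PINK1 immunofluorescence, quantified alongside mitochondrial, cell and nuclear markers by laser-scanning microplate cytometry. Cells from a stable line were exposed to compound titrations (5 concentrations) for 24 hours, with CCCP controls.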
D2 ag – Beta-Arrestin HTS for Positive Allosteric Modulators of the Human D2 Dopamine Receptor: Agonists; DiscoveRx PathHunter D2 beta-arrestin, luminescence, 90 min; 100% = 57 uM dopamine signal; activation, % (concentration not given with the values); 360,000 compounds, 0.084% hits; in the data active = activation above about 40%; inconclusive = about 15% to 40%; inactive = below about 15%; further: the text of the record calls up to 30% inactive
Target sequence (P14416 whole entry, looked up): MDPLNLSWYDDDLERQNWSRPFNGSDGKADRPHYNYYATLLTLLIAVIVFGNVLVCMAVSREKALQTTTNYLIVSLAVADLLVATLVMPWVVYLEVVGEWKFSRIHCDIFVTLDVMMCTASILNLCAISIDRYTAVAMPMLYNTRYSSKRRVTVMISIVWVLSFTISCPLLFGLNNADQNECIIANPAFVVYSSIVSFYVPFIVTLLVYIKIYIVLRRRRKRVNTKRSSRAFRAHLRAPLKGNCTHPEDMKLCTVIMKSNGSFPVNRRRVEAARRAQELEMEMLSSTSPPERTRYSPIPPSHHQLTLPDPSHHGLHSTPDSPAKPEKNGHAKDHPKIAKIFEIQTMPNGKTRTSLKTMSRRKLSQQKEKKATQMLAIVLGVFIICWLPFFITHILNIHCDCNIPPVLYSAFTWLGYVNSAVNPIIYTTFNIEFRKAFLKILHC
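DiscoveRx PathHunter D2 beta-arrestin cells (2,100/well) attached overnight, then compound-stimulated 90 min at 37 C in HBSS/10 mM HEPES/0.1% Tween-20 buffer; beta-galactosidase complementation read by luminescence after 1 h at ambient temperature. Dopamine 57 uM final (EC100) as control.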
gsp agonist – qHTS for Agonist of gsp, the Etiologic Mutation Responsible for Fibrous Dysplasia/McCune-Albright Syndrome: qHTS; gsp mutant cells, cAMP HTRF, 30 min; control for the full effect not named in the record; Potency, µM (highest dose often 76.9 µM), inactives show at the top dose activation (cAMP increase), usual class: activators; 340,000 compounds, 0.13% hits; active = well fitted activation curve with a large enough effect; inconclusive = small, poorly fitted or top-dose-only effect, or another doubt; inactive = no such curve, though single readings can be large or run the other way; cell line not stated here;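 further: phosphodiesterase inhibitor Ro 20-1724 added with compounds to block cAMP breakdown; potency means the concentration at half of the fitted maximal effect; nearly all actives have a fitted effect of over 60% in size; about a fifth of the inactives were tested at one dose only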
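Cells in DMEM/10% FBS with G418 were pretreated with compounds in DMSO plus […] (300 uM stock) for 30 min at 37C. cAMP was measured by HTRF (cAMP-d2 plus anti-cAMP antibody-K) after 30 min at room temperature.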
ClpP mod – qHTS Assay for Activators of ClpP; ATP-dependent Clp protease proteolytic subunit (Bacillus subtilis (strain 168)), P80244; purified B. subtilis ClpP, FRET peptide cleavage, 20 min; Potency, µM (doses to about 57.5 µM), for the others: at the top dose activity change, negative = active; 340,000 compounds, 1.9% hits; active = well fitted falling curve with a large enough effect; inconclusive = small, poorly fitted or top-dose-only effect; inactive = no such curve, though single readings can be large or run the other way; further: potency means the concentration at half of the fitted maximal effect; the source files actives as falling curves though it sought activators and does not explain the sign; nearly all actives have a fitted effect of over 65% in size; many hits overshoot -100%
Target sequence (P80244 whole entry, looked up): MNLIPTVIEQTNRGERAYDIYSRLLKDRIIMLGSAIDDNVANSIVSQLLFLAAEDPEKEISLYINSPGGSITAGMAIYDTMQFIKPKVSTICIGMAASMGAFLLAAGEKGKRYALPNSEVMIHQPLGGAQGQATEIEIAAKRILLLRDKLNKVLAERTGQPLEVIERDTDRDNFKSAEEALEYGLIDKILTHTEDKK
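ClpP 10 microg/mL final, pH 8 Tris/KCl buffer with BSA, glycerol, Tween-20; compound pinned in; FRET-FV substrate; RT 20 min; Ex320/Em430; ΔFRET vs ADEP 5.8 microM, DMSO, no enzyme.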
gsp antag – qHTS for Antagonists of gsp, the Etiologic Mutation Responsible for Fibrous Dysplasia/McCune-Albright Syndrome: qHTS; gsp-mutant cells, cAMP HTRF, 30 min; control for the full effect not named in the record; Potency, µM (series often up to 76.9 µM), for inactives: at the top dose activity change, negative = inhibition, most hits filed as inhibitors; 340,000 compounds, 0.4% hits; active = falling curve of any shape with a large fitted effect; inconclusive = falling curve, mostly with a smaller effect; inactive = flat or rising curve; cell line not stated here;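 further: intracellular cAMP measured with PDE inhibitor Ro 20-1724 present during compound exposure; potency means the concentration at half of the fitted maximal effect; on the % scale 0 is the no-effect control and ±100 the full control effect; nearly all actives have a fitted effect of over 65% in size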
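Cells, 2000/well, grown 16–24 h in DMEM 10% FBS with 0.5 mg/ml G418, then compounds plus […] (300 uM addition stock), 30 min at 37C. cAMP read by HTRF (cAMP-d2 and anti-cAMP antibody-K in lysis buffer) after 30 min RT.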
Sfp inh – qHTS Assay for Inhibitors of Bacillus subtilis Sfp phosphopantetheinyl transferase (PPTase); 4'-phosphopantetheinyl transferase ffp (Bacillus subtilis), Q9F4F7; Potency, µM, for the others: max response, negative = inhibition, actives largely listed as inhibitors; 310,000 compounds, 3.5% hits; Biochemical Sfp PPTase activity, qHTS; AID 1490, 2009; active means well fitted inhibition curve with a large enough effect; inconclusive means small, poorly fitted or top-dose-only effect, or another doubt; inactive means no such curve, though single readings can be large or run the other way;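 further: the enzyme is Sfp with the accession as filed and its product quenches rhodamine fluorescence; potency means the concentration at half of the fitted maximal effect; 0% = enzyme reaction without inhibitor and -100% = no enzyme wells; top concentration of the series not given in the record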
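Step 1, compound plus 15 nM Sfp-PPTase, 15 min, room temperature. Step 2, add rhodamine-CoA (5 uM) and BHQ-2-YbbR (12.5 uM). Step 3, read 525/598 nm fluorescence at 0 and 30 min.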
* = called active by the depositor; ? = inconclusive; · = not tested or not shown; & = joins results of further samples; [ ] = remark or other dose. Outcome played no part in choosing rows, and some 5.1% of all compounds hit somewhere here.

Preview, 3 compounds:
smiles,Menin-MLL FL inh,PINK1 modulator,D2 ag,gsp agonist,ClpP mod,gsp antag,Sfp inh
O=[N+]([O-])c1cc(/C=N/N/C(=N/c2ccccn2)c2ccccn2)ccc1O,-4.1,7.9%,-1.6,15.1%[15.4 µM],·,-37.1%,12.4%
COCCCNC(=S)NCCNc1nc2cc(C)cc(C)c2cc1C#N,4.8,4.7%,-2.6,-8.0%[15.4 µM],-3.3%,-15.7%,-1.7%
O=C(c1ccc(OC2CCN(CCc3ccccc3)CC2)cc1)N1CCCC(CO)C1 (stereo not drawn),12.0,0.9%,-1.9,-13.0%,0.6%,7.9%,-9.1%

This part in full, from the first entry:
smiles,Menin-MLL FL inh,PINK1 modulator,D2 ag,gsp agonist,ClpP mod,gsp antag,Sfp inh
O=[N+]([O-])c1cc(/C=N/N/C(=N/c2ccccn2)c2ccccn2)ccc1O,-4.1,7.9%,-1.6,15.1%[15.4 µM],·,-37.1%,12.4%
COCCCNC(=S)NCCNc1nc2cc(C)cc(C)c2cc1C#N,4.8,4.7%,-2.6,-8.0%[15.4 µM],-3.3%,-15.7%,-1.7%
O=C(c1ccc(OC2CCN(CCc3ccccc3)CC2)cc1)N1CCCC(CO)C1 (stereo not drawn),12.0,0.9%,-1.9,-13.0%,0.6%,7.9%,-9.1%
COc1ccc(-c2noc(CCC(=O)N3CCN(c4ccc(F)cc4)CC3)n2)cc1,·,-0.3%,-1.9,·,-1.2%,-6.8%,·
CCOC(=O)c1nn(-c2ccc(OCC)cc2)c2nc(-c3ccco3)c(C#N)c(=O)n12,6.1,-2.6%,-2.2,57.4%,-19.8%,-19.6%,10.1%
CNc1ncnc2sc(-c3ccccc3)cc12,-2.1,-1.1%,-2.8,-17.8%[15.4 µM],14.1µM*,3.8%,-29.5%
Cc1ccc2[nH]c(=O)c3cc(C(=O)N(C)c4ccccc4C)sc3c2c1,-1.0,5.0%,-1.6,-18.0%,-11.6%,2.6%,30.4%[activator]
OCc1nc2nc(Cl)c(Cl)nc2[nH]1,?,1.6%,-0.7,9.3%,3.6%,5.4%,-16.8%
NNC(=O)C(=O)NCCCN1CCOCC1,-2.0,0.5%,-5.3,-21.8%,-1.3%,2.3%,4.9%
Cc1ccc(C(CNC(=O)C(=O)Nc2ccc3c(c2)OCCO3)N2CCN(C)CC2)cc1 (stereo not drawn),·,-0.8%,-4.0,-36.3%[inhibitor],-1.9%,20.1%,·
CN1CCN(C(=O)c2ccc(S(=O)(=O)Nc3ccccc3)cc2)CC1,·,2.5%,-4.0,-14.7%,2.8%,19.4%,·
CC1(C(=O)Nc2ccc(F)cc2F)CCN1C(=O)CCC1CCCC1 (stereo not drawn),·,1.8%,0.6,·,-1.1%,·,·
COc1ccc(NC(=O)CSc2n[nH]c(=O)n2C2CC2)cc1OC,·,-0.3%,-2.3,12.8%,-2.1%,-5.4%,·
O=C(NCc1ccco1)c1cnn2c(C(F)F)cc(-c3ccccc3)nc12,3.3,9.5%,-2.8,-8.7%,?,-1.6%,9.2%
CCOC(=O)N1CCC(NC(=O)CS(=O)Cc2nc(-c3ccc(OC)c(OC)c3)oc2C)CC1 (stereo not drawn),5.8,0.7%,-0.3,-3.2%,-17.9%,-12.4%,?
CCCCCC(=O)Nc1ccc(N2CCN(C(=O)c3ccccc3)CC2)cc1,-5.2,-2.2%,-2.6,-30.0%,0.3%,-3.7%,0.1%
C=C(C(=O)c1ccccc1)C(CC(=O)c1ccccc1)c1ccccc1 (stereo not drawn),-1.2,-2.2%,-1.1,-21.5%,-2.2%,-9.3%,-3.1%
COc1ccc(S(=O)(=O)N(C)c2ccc(C(=O)N3CCC(C(N)=O)CC3)cc2)cc1OC,-2.0,0.0%,-1.2,14.1%,·,5.9%,24.7%
CCOc1ccc(S(=O)(=O)NCCC(=O)OCC(=O)c2ccc(NC(C)=O)cc2)cc1,·,0.3%,-9.9,-54.7%[inhibitor],-0.5%,-11.5%,·
c1ccc2oc(SCc3nc4ccccc4s3)nc2c1,1.8,2.2%,-4.1,-52.3%[inhibitor],-2.3%,6.9%,-21.7%
COc1ccc(CN2CCC(=O)N([C@H](CO)CC(C)C)CC2)cc1OC,-1.9,-0.7%,0.6,?,-0.8%&-2.8%,5.6%,11.9%
CC(Sc1nncs1)C(=O)Nc1ccc2c(c1)OCCO2 (stereo not drawn),·,-0.6%,-2.7,17.2%[15.4 µM],·,6.3%,·
COC(=O)C(Cc1ccc(O)cc1)NC(=O)Cn1cc(C)c(=O)[nH]c1=O (stereo not drawn),·,-0.3%,-2.6,·,-1.9%,10.2%,·
CCSc1ccccc1-c1nc(-c2ccncc2)no1,-0.4,3.0%,2.4,?,-4.4%,-16.8%,-17.5%
Cc1cccc(C(=O)Nc2ccc(C(=O)Nc3ccc(O)cc3)cc2)c1,-0.9,5.3%,-1.6,-9.3%[15.4 µM],3.3%,8.5%,2.8%

New compounds follow.
Compound,Menin-MLL FL inh,PINK1 modulator,D2 ag,gsp agonist,ClpP mod,gsp antag,Sfp inh
Cc1nc2ccc(S(=O)(=O)N(C)CC(=O)N3CCc4ccccc43)cc2s1,1.3,-0.8%,-2.7,-2.3%,-0.6%,-32.6%,11.0%
O=C(Cn1cnc2c(nnn2-c2cccc(Cl)c2)c1=O)N1CCOCC1,?,1.7%,-7.1,-10.3%,-2.6%,2.8%,-9.7%
COc1ccc(C(=O)c2c[nH]c(C(=O)N=CN(C)C)c2)cc1,-5.4,-1.0%,-4.2,-7.1%[15.4 µM],·,-1.0%,5.9%
O=C(Nc1ccc(N2CCCC2=O)cc1)c1cncc(Br)c1,·,-1.1%,-2.6,-36.5%[inhibitor],-6.5%,-7.3%,18.9%
Clc1ccc(Cc2ccc(Cl)nn2)c(Cl)c1,2.1,?,-1.6,-45.4%[inhibitor],-0.7%,13.4%,-1.1%
O=C(CCCc1cccs1)Nc1ccc2c(c1)OCO2,-0.3,-2.3%,2.6,?,0.7%,2.7%,9.5%
NC(=O)c1ncn([C@@H]2O[C@H](CNCc3ccc(-c4cc(C(F)(F)F)ccc4Cl)o3)[C@@H](O)[C@H]2O)n1,·,1.2%,-2.7,·,-0.5%,9.0%,·
COc1ccc(NC(=O)[C@H](COCc2ccccc2)NC(=O)OC(C)(C)C)cc1,3.3,-1.1%,0.7,6.0%,0.0%,12.8%,12.0%

Later entries:
Compound,Menin-MLL FL inh,PINK1 modulator,D2 ag,gsp agonist,ClpP mod,gsp antag,Sfp inh
C/C(=N\NC(=O)c1nnn(-c2nonc2N)c1CN1CCC(C)CC1)c1ccc(Br)cc1,·,1.5%,-3.1,-66.8%[inhibitor],1.4%,·,·
Cc1ccc(OCCN2C(=O)c3ccccc3C2=O)cc1,-0.6,10.7%[38.3 µM],-2.1,?,2.0%,3.0%,-17.0%
CC1CCCN(C(=O)c2ccc(Br)c(S(=O)(=O)N3CCOCC3)c2)C1 (stereo not drawn),·,0.0%,0.0,-4.1%,1.0%,-0.2%,·
O=C1CC2(CCCCC2)Oc2ccc(Cl)cc21,·,2.1%,-2.1,2.7%,4.4%,6.8%,·
COC(=O)CN1C(=O)COc2ccc(S(=O)(=O)NCc3ccc(Cl)cc3)cc21,-3.8,0.3%,4.9,?,-1.5%,8.1%,6.5%
CN(CCc1ccccc1)C(C(=O)Nc1ccc2c(c1)OCCO2)c1ccnc2ccccc12 (stereo not drawn),·,2.9%,2.3,·,-2.0%,·,·
Clc1ccc(CN2CCN(/N=C/c3ccco3)CC2)cc1,0.6,-0.1%,-5.6,-9.5%[15.4 µM],·,16.7%,3.3%
O=C(Nc1ccccc1Oc1ccccc1)c1cccc([N+](=O)[O-])c1,-1.7,3.4%,-1.4,4.9%,1.2%,-23.0%,-1.4%

Next section:
Compound,Menin-MLL FL inh,PINK1 modulator,D2 ag,gsp agonist,ClpP mod,gsp antag,Sfp inh
Cc1ccc(CSCCC(=O)NCCc2ccc(Cl)cc2)cc1,-3.3,9.3%,-0.8,-3.3%,2.7%,3.3%,19.1%
COC(=O)C(C(=O)Nc1cc(C)on1)C1CCCCCC1 (stereo not drawn),7.0,15.9%,-0.2,5.4%,?,13.0%,16.0%
O=C(CNc1ccccc1)N/N=C/c1cc([N+](=O)[O-])ccc1N1CCCC1,3.1,-1.5%,-1.0,-12.6%,-1.9%,?,2.7%
Cc1ccc(-c2cc(C(=O)Nc3nccs3)c3ccccc3n2)c(C)c1,5.6,2.9%,-0.7,-26.5%,-3.3%,8.7%,-8.5%
COc1cc(OC)cc(C(=O)Nc2ccc([N+](=O)[O-])cn2)c1,0.0,5.4%,4.0,6.3%,-0.1%,-4.2%,4.7%
COc1ccccc1-c1nc(NC(C)=O)n[nH]1,1.7,-3.2%,-0.2,-10.2%,-9.0%,-3.8%,-8.9%
CCCN1C2CCCC1CC(NC(=O)c1ccc(C(C)(C)C)cc1)C2 (stereo not drawn),-4.2,-0.2%,2.9,-19.4%,0.7%,10.4%,24.4%

Source: PubChem BioAssay (National Center for Advancing Translational Sciences (NCATS))
